# Compound activity deposited in PubChem by several laboratories.
# VCAM-1 down: inhibitors of TNFa-induced VCAM-1 surface display, cell-based, plate reader, pooled HUVEC, TNFa stimulus (AID 454). actives 0.2% (n = 10,000). inhibition, % at 5 µM. HUVEC TNFa-induced VCAM-1 surface immunofluorescence, plate reader; numbers were filed only for top-ranked candidate wells;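 active means compound among top-ranked inhibitors of TNF-induced VCAM-1 adhesion protein staining, with the hit upheld by image or statistical review; inactive means the rest, including hits rejected on review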;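 further: 0% = TNFa with vehicle and 100% = cells without TNFa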
# VCAM-1 imaging: suppression of endothelial VCAM-1 upregulation – imaging, high-content imaging, pooled HUVEC, TNFa stimulus (AID 456). HUVEC TNFa-induced VCAM-1 surface expression, immunofluorescence imaging; numbers were filed only for top-ranked candidate wells. one-dose inhibition, % at 5 µM; IC50 in µM for titrated hits. actives 0.2% (n = 10,000);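 active means top tenth filtered wells with inhibition above zero that passed visual or statistical confirmation; inactive means the rest, including hits rejected on review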;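 further: 0% = stimulated vehicle wells and 100% = unstimulated cells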
# VCAM-1 up imaging: boosters of cytokine-driven VCAM-1 levels – imaging, high-content imaging, pooled HUVEC, TNFa stimulus (AID 457); Pooled HUVEC, TNFa-induced VCAM-1 immunofluorescence imaging; hits of this screen are not shown here; calls only; actives 0.2% (n = 10,000);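 active means a top-ranked rise in VCAM-1 staining upheld on image or statistical review; inactive means the rest, including candidates rejected on review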;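 further: compounds tested at 5 µM in the well; cells exposed to compound for 24 hours before fixing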
# FPR binder: binds the human formylpeptide receptor FPR; P21462; FPR-expressing cells, fluorescent ligand binding, flow cytometry; inhibition, %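 (tested at 6.7 µM)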; actives 0.74% (n = 24,000); AID 440;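 further: 0% = buffer wells and 100% = receptor blocker peptide wells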
# Target sequence (P21462 whole entry, looked up): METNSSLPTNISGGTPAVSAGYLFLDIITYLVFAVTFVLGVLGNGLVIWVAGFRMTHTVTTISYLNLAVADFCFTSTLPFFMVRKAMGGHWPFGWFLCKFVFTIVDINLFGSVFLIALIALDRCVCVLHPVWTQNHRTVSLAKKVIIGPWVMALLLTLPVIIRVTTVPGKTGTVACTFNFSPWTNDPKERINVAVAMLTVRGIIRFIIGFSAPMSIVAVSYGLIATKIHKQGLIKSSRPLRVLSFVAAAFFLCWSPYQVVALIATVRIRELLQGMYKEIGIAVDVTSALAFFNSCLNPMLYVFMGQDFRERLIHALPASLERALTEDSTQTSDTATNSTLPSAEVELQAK
# FPRL1 binder: human FPRL1 ligand, with FPR counter-screen; FPRL1-expressing cells, fluorescent ligand binding inhibition, flow cytometry; inhibition, %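 (tested at 6.7 µM)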; actives 0.3% (n = 24,000); AID 441;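 further: 0% = buffer alone and 100% = receptor blocker peptide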
# Target sequence (P25090 whole entry, looked up): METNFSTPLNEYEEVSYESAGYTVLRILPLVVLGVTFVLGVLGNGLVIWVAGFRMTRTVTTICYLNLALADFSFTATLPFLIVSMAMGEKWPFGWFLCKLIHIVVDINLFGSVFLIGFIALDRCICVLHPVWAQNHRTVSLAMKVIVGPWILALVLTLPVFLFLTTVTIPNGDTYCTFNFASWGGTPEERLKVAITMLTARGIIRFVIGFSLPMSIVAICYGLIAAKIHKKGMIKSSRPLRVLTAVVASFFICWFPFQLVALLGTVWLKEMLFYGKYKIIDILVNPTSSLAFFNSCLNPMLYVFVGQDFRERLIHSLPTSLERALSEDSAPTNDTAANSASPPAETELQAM
# Starred values were filed as active, the others as inactive; i = inactive; x = not tested or not shown.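 How the source made its calls, unless noted: active means mean above 30%; inconclusive means self-fluorescent; inactive means the rest.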 Only part of the results is shown. The share of hits here may be higher or lower than overall.
# Values run as follows: FPRL1 binder, VCAM-1 down, VCAM-1 up imaging, FPR binder, VCAM-1 imaging
- COc1ccccc1-n1cnc2cc(C(=O)NCCCN3CCOCC3)ccc21
 : 2, x, x, 1, x
- CC(=O)Nc1nc(C)c(-c2csc(Nc3ccc(O)cc3)n2)s1
 : -7, i, i, -6, i
- CCN(CC)S(=O)(=O)c1ccc2oc(C(=O)NC(C)C)c(C)c2c1
 : -3, x, x, 1, x
- Cc1ccc2oc(=O)c3cnn(CC(=O)NCCN(C)C)c3c2c1
 : -3, x, x, -6, x
- O=S1(=O)CCC(NS(=O)(=O)/C=C/c2ccccc2)C1 (stereo unspecified)
 : 5, i, i, -3, i
- CCC(=O)N1CCc2cc(S(=O)(=O)CCC(=O)Nc3ccc(CC)cc3)ccc21
 : -4, x, x, -2, x
- COc1ccccc1N1CCN(C(=O)c2cc(-c3ccco3)on2)CC1
 : -1, x, x, 4, x
- Cc1nc(/N=C\N(C)C)sc1C(=O)Nc1ccccc1
 : 7, i, i, -3, i
- CCOC(=O)N1CCC(c2nc(C)sc2C(=O)O)CC1
 : 16, x, x, 6, x
- Cn1c(C(=O)NCCN2CCc3ccccc3C2)cc2c(=O)n(C)c3ccccc3c21
 : 2, x, x, 6, x
- Cc1ccccc1-c1nc(CS(=O)(=O)CC(=O)NCCCN2CCCC2=O)c(C)o1
 : -2, x, x, 7, x
- CCOC(=O)c1ccc(CC2S/C(=C(\C#N)C(C)=O)NC2=O)cc1 (stereo unspecified)
 : 1, i, i, 18, i
- CCN(CCNC(=O)CC1Oc2ccccc2NC1=O)c1ccccc1 (stereo unspecified)
 : -2, x, x, -1, x
- COc1ccc(C2c3c(oc4ccccc4c3=O)C(=O)N2c2ccc(C)cn2)cc1OC (stereo unspecified)
 : -1, i, i, -1, i
- CCC1CCCCN1CCCNC(=O)c1cn(CC(C)C)c(=O)c2cc(OC)c(OC)cc12 (stereo unspecified)
 : -5, x, x, -40, x
- Cn1c(C(=O)N2CCC(C(=O)N3CCOCC3)CC2)cc2sccc21
 : 1, x, x, 2, x
- CCOc1ccc(C(=O)CN2CCN(S(=O)(=O)c3ccc(F)cc3)CC2)cc1
 : -1, x, x, 4, x
- CCCCn1c(NCc2ccccc2O)nc2ccccc21
 : -2, i, i, 7, i
- CCOC(=O)c1c(-c2ccccc2)nnn1-c1nc(OCC)nc(N2CCCCC2)n1
 : -3, x, x, 4, x
- Cc1ccccc1S(=O)(=O)Cc1ccc(C(=O)N2CCN(c3cccc(C)c3C)CC2)o1
 : -10, x, x, 10, x
- O=C(C1CCN(S(=O)(=O)N2CCC3(CC2)OCCO3)CC1)N1CCc2ccccc2C1
 : -3, x, x, -2, x
- COc1cccc(C2=NOC(C(=O)NCc3ccco3)C2)c1 (stereo unspecified)
 : 4, x, x, 10, x
- COc1ccccc1C(=O)NCC(=O)Nc1ccccc1
 : -3, i, i, -2, i
- CCOC(=O)N1CCN(CC(O)COc2ccccc2C(C)C)CC1 (stereo unspecified)
 : -5, x, x, -11, x
- O=c1cc(Nc2ccc3c(c2)OCCO3)[nH]c(=O)n1C1CCCCC1
 : 1, x, x, 6, x
- COc1ccc(S(=O)(=O)Cc2ccc(C(=O)N3CCc4ccccc4C3)o2)cc1
 : 8, x, x, 1, x
- CCCOc1ccc2oc(=O)c3c(c2c1)CCCN3C(=O)CN1CCN(c2ncccn2)CC1
 : -2, x, x, -2, x
- COc1ccc(CNC(=O)c2onc(C)c2Cl)cc1
 : 0, x, x, -6, x
- Nc1nc(F)nc2c1ncn2[C@@H]1O[C@H](CO)[C@@H](O)[C@@H]1O
 : -2, i, i, -5, i
- CC(=O)NCCCCCCNC(C)=O
 : -1, i, i, 1, i
- COc1cccc2c1OC1(C)CC2NC(=O)N1c1cccc(C(=O)N2CCN(c3ccccn3)CC2)c1 (stereo unspecified)
 : 0, x, x, 2, x
- CC(C)NC(=O)CCCc1cn(C)c2ccccc12
 : -3, x, x, -1, x
- CCN1CCN(C(=O)c2ccc3c(=O)n(CCC4=CCCCC4)c(=O)[nH]c3c2)CC1
 : 1, i, i, -2, i
- Cc1ccc(S(=O)(=O)c2nc(-c3cccs3)oc2SCC(N)=O)cc1
 : 1, x, x, 0, x
- Cc1csc2nc(CSc3nc4ccccc4o3)c(Br)n12
 : -12, i, i, 3, i
- CCOC(=O)c1nnn(-c2nc(N3CCCC3)nc(N3CCCC3)n2)c1-c1ccccc1
 : -2, x, x, 11, x
- CCOC(=O)CSc1nc2sc(C)c(C)c2c(=O)[nH]1
 : -3, i, i, -4, i
- CCN(c1ccccc1)S(=O)(=O)c1ccc2[nH]cc(C(=O)NCCOC)c(=O)c2c1
 : 14, x, x, -5, x
- COc1ccc(C2CC(c3cccc(C)c3)n3ncnc3N2)cc1 (stereo unspecified)
 : -3, i, i, 0, i
- Nc1scc(-c2ccncc2)c1Cl
 : -9, i, i, -2, i
- CC(C)(C)OC(=O)N1CCC(C(=O)N2CCCCCC2)CC1
 : -7, i, i, -9, i
- CC(=O)C1=C(O)C(=O)N(c2ccc(S(N)(=O)=O)cc2)C1c1ccccc1F (stereo unspecified)
 : -11, x, x, -10, x
- Cc1c(C(=O)Nc2ccncc2)oc2c1C(=O)CC(C)(C)C2
 : 4, i, i, 5, i
- COc1ccc(N(C(=O)c2ccc(Br)o2)C2C=CS(=O)(=O)C2)cc1 (stereo unspecified)
 : 12, x, x, 0, x
- COc1cc2c(C)nc(C)c(C#N)c2cc1OC
 : 3, i, i, -7, i
- Cc1ccc2nc(C3CCN(CC(=O)N4CCCCCC4)CC3)[nH]c2c1
 : 1, i, i, -3, i
- CN(c1ccccc1)S(=O)(=O)c1ccc(C(=O)OCC(=O)NCc2ccco2)cc1
 : 0, i, i, -3, i
- Cc1nnc(SCC(=O)Nc2nccs2)s1
 : 0, i, i, 1, i
- CN1CCc2nc(SCCOc3ccccc3)c(C#N)cc2C1
 : -12, i, i, 1, i
- CCN1CCN(CC(O)COc2ccc(C(C)=O)cc2)CC1 (stereo unspecified)
 : -5, x, x, -10, x
- COc1cc(C2c3c(oc4ccccc4c3=O)C(=O)N2c2ccc(C)cn2)ccc1O (stereo unspecified)
 : 0, i, i, -6, i
- Fc1ccc(Br)cc1C1C=C(c2ccc(Br)s2)Nc2ncnn21 (stereo unspecified)
 : 2, x, x, 8, x
- COc1ccccc1N1CCN(C(=O)c2ccc(N3CCCC3=O)cc2)CC1
 : 12, x, x, 8, x
- CCOC(=O)N1CCC(NS(=O)(=O)c2cc3c(cc2C)NC(=O)CO3)CC1
 : -5, x, x, -10, x
- CSc1cccc(NC(=O)c2nnn(Cc3ccccc3)c2N)c1
 : 0, x, x, -1, x
- CCN(CCO)C(=O)CC(c1ccccc1)c1cc(Br)ccc1O (stereo unspecified)
 : 0, i, i, 14, i
- COCCn1c(CN(Cc2ccccc2)Cc2ccccc2)nc2c1c(=O)n(C)c(=O)n2C
 : 8, i, i, 10, i
- CCC1(C)Nc2ccccc2C(=O)N1O (stereo unspecified)
 : 2, x, x, 5, x
- COC(=O)c1cccc(CSc2nnc(-c3ccco3)n2-c2ccccc2)c1
 : 17, x, x, -4, x
- Cc1ccc(C)c2[nH]c(=O)c(CCNC(=O)c3ccc(S(=O)(=O)N(C)C)cc3)cc12
 : -4, i, i, -4, i

# Grouped by structure: the compounds so far containing a Cl atom (2)
# Values run as follows: FPRL1 binder, VCAM-1 down, VCAM-1 up imaging, FPR binder, VCAM-1 imaging
- COc1ccc(CNC(=O)c2onc(C)c2Cl)cc1
 : 0, x, x, -6, x
- Nc1scc(-c2ccncc2)c1Cl
 : -9, i, i, -2, i

# Continued.
# Values run as follows: FPRL1 binder, VCAM-1 down, VCAM-1 up imaging, FPR binder, VCAM-1 imaging
- Cc1ccc(S(=O)(=O)N2CCCN(S(=O)(=O)C3CCS(=O)(=O)C3)CC2)cc1 (stereo unspecified)
 : -3, i, i, 2, i
- Cc1ccnc(N2CCN(C(=O)CSc3nc4ccccc4nc3N3CCCCC3)CC2)c1
 : -4, i, i, 1, i
- CCOc1ccc(N(CC(=O)NC2CCCC(C)C2C)S(=O)(=O)c2c(C)noc2C)cc1 (stereo unspecified)
 : 2, i, i, 10, i
- CSC1=NCCN1C(=O)C(C)Oc1ccccc1 (stereo unspecified)
 : -1, x, x, -1, x
- O=C1CSC(c2cn(-c3ccccc3)nc2-c2cccs2)N1CC1CCCO1 (stereo unspecified)
 : -4, i, i, 0, i
- O=C(CN1C(=O)C2C3C=CC(C3)C2C1=O)Nc1ccc2c(c1)OCCO2 (stereo unspecified)
 : 11, x, x, 4, x
- CCOC(=O)CNC(=O)CN1C(=O)CCS(=O)(=O)c2ccccc21
 : 9, x, x, -7, x
- O=C(c1cc2ccccc2oc1=O)N1CCCN(C(=O)c2cc3ccccc3oc2=O)CC1
 : 11, x, x, -4, x
- CC(c1nnc(SCC(=O)Nc2sccc2C#N)n1-c1ccc(Cl)cc1)N(C)C (stereo unspecified)
 : -5, i, i, 5, i
- O=C(Nc1ccc(Cl)cc1)N1CCSCC1
 : 3, i, i, -7, i
- Cc1nc2sc(C(c3ccccc3)N3CCOCC3)c(O)n2n1 (stereo unspecified)
 : -8, x, x, -2, x
- CC1CN(C(=O)c2scc3c2OCCO3)CC(C)O1 (stereo unspecified)
 : 1, i, i, -1, i
- Cc1cc(C)n2nc(SCC(=O)N(C)Cc3ccccc3)nc2n1
 : 3, i, i, -6, i
- COc1cccc2c(=O)c3c(cnn3C)n(C)c12
 : 2, i, i, 0, i
- COc1ccc(-c2ccc(=O)n(CC(=O)NCc3ccco3)n2)cc1
 : -7, x, x, 1, x
- COc1ccc(S(=O)(=O)NCc2csc(C)n2)cc1
 : 3, x, x, -4, x
- COc1ccc(-c2nnc(NC(=O)c3ccc(S(=O)(=O)N4COCC4(C)C)cc3)o2)cc1
 : -2, x, x, -6, x
- O=C(C1CCCN1S(=O)(=O)c1ccc(Cl)c(Cl)c1)N1CCCCC1 (stereo unspecified)
 : -1, x, x, 13, x
- Cc1cc(C2C(C#N)=C(N)SC(N)=C2C#N)c(C)s1
 : -4, i, i, -10, i
- CS(=O)(=O)N(CC(=O)NCCSCc1cccc(Cl)c1)c1ccc2c(c1)OCO2
 : 3, i, i, -1, i
- Cc1nn(Cc2ccccc2)c(C)c1NC(=O)c1cc(-c2cccs2)on1
 : -3, x, x, 5, x
- COc1ccccc1N1CCN(C(=O)c2cc(-c3ccc4c(c3)OCO4)on2)CC1
 : 0, x, x, -4, x
- CCOC(=O)C(Cc1ccccc1)NS(=O)(=O)c1ccc(NC(C)=O)cc1 (stereo unspecified)
 : -4, x, x, 4, x
- CCOc1ccc(/C(O)=C2/C(=O)C(=O)N(CC3CCCO3)C2c2ccco2)cc1 (stereo unspecified)
 : 26, x, x, 48*, x
- CCC(=O)N1CCc2cc(Br)cc(S(=O)(=O)NCCN3CCCCC3CC)c21 (stereo unspecified)
 : 8, x, x, 8, x
- COCCNC(=O)CSc1nc2cc(OC)c(OC)cc2c(=O)n1Cc1ccco1
 : -1, x, x, -3, x
- COc1ccc(OC)c(NC(=O)C2CCN(S(=O)(=O)c3c(C)noc3C)CC2)c1
 : -12, x, x, -10, x
- CCOc1cc2[nH]c(=O)n(CCc3ccc(OC)c(OC)c3)c(=O)c2cc1OCC
 : 9, x, x, -4, x
- O=C(NCCCN1CCCC1=O)c1ccc2c(c1)NC(=O)C(N1CCOCC1)S2 (stereo unspecified)
 : 0, i, i, -2, i
- CCOC(=O)C1=C(C)Nc2ncnn2C1c1cc(Br)ccc1F (stereo unspecified)
 : 4, x, x, 6, x
- O=C(c1ccc(C(=O)N2CCN(c3ccccc3F)CC2)nc1)N1CCN(c2ccccc2F)CC1
 : 5, x, x, -5, x
- Cc1cccc(N(C)C(=O)c2cc3cc4ccc(C)cc4nc3o2)c1
 : -4, i, i, 0, i
- COC(=O)c1nnn(CC(=O)Nc2cccc(Cl)c2C)c1C(=O)OC
 : -6, x, x, -5, x
- Cc1ccc(-c2noc(CN(C(=O)C34CC5CC(CC(C5)C3)C4)C(C)C)n2)cc1
 : 12, x, x, 4, x
- O=C(c1ccccc1)N1CC(COc2ccccc2)OC(c2cccnc2)O1 (stereo unspecified)
 : 6, x, x, 8, x
- COc1ccc(CCNC(=O)Cn2cnc3c(nnn3Cc3ccc(C)cc3)c2=O)cc1OC
 : 4, x, x, 1, x
- COc1cccc(N2C(=O)c3ccncc3C2=O)c1
 : -2, x, x, 4, x
- CCOC(=O)c1ccc(N=c2sc(C(=O)OC)cc(=O)n2CCCN2CCOCC2)cc1
 : 8, x, x, -7, x
- O=C(O)C1CCCN(S(=O)(=O)c2cccc3cccnc23)C1 (stereo unspecified)
 : 1, x, x, -2, x
